FGF22 binding – binders of recombinant human FGF22 by thermal shift | Q9HCT0 | SYPRO orange fluorescence; percent of sucrose octasulfate shift, DMSO zero | calls only at 9.99 µM | 1.5% of 340,000 active;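 active = melting point raised past a set limit in the mean and every replicate; three in four hits are not shown here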
Target sequence (Q9HCT0 whole entry, looked up): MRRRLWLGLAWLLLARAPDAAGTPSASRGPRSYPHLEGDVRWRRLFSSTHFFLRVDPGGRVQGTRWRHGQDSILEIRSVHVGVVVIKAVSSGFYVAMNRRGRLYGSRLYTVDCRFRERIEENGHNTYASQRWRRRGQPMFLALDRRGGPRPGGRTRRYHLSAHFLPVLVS
Calls only; i = inactive.

Cc1noc(C)c1NC(=O)N[C@@H]1CC[C@H](CC(=O)NCc2ccc(Cl)c(Cl)c2)O[C@@H]1CO
  FGF22 binding: i
COC(=O)C[C@@H]1C[C@H]2c3cc(NC(=O)Nc4ccc(F)cc4)ccc3O[C@H]2[C@@H](CO)O1
  FGF22 binding: i
COCC(=O)N1C[C@@H](C)[C@H](OC)CN(C)C(=O)c2cc(NC(=O)Nc3ccccc3)ccc2OC[C@@H]1C
  FGF22 binding: i
COCC#Cc1ccc2c(c1)O[C@H](CN(C)C(=O)Nc1ccc(OC)cc1)[C@@H](C)CN([C@@H](C)CO)S2(=O)=O
  FGF22 binding: i
CCS(=O)(=O)Nc1ccc2c(c1)C(=O)N(C)[C@H]1CC[C@H](CC(=O)N[C@H]3CCN(Cc4ccccc4)C3)O[C@@H]1CO2
  FGF22 binding: i
C[C@H](CO)N1C[C@H](C)[C@@H](CN(C)Cc2ccc(Oc3ccccc3)cc2)Oc2c(NS(=O)(=O)c3ccccc3)cccc2C1=O
  FGF22 binding: i
C[C@H](CO)N1C[C@H](C)[C@@H](CN(C)C(=O)c2cnccn2)Oc2ncc(-c3cccc(C#N)c3)cc2C1=O
  FGF22 binding: i
C[C@@H]1CN([C@@H](C)CO)S(=O)(=O)c2ccc(C#Cc3ccccc3)cc2O[C@@H]1CN(C)C(=O)C1CC1
  FGF22 binding: i
CN(C)C(=O)c1ccc(-c2ccc([C@H]3[C@@H](C#N)N(C(=O)C4CCC4)[C@@H]3CO)cc2)cc1
  FGF22 binding: i
C[C@@H]1CN([C@H](C)CO)C(=O)c2cc(C#CCN(C)C)cnc2O[C@H]1CN(C)C(=O)c1cccnc1
  FGF22 binding: i
C[C@@H]1CN([C@H](C)CO)C(=O)Cc2cc(NC(=O)Nc3ccc(C(F)(F)F)cc3)ccc2O[C@@H]1CN(C)CC1CCCCC1
  FGF22 binding: i
COc1ccc(NC(=O)Nc2ccc3c(c2)CC(=O)N([C@H](C)CO)C[C@@H](C)[C@@H](CN(C)Cc2ccncc2)O3)cc1
  FGF22 binding: i
CCNC(=O)C[C@@H]1CC[C@H]2[C@H](COc3ccc(NC(=O)c4ccccc4Cl)cc3C(=O)N2C)O1
  FGF22 binding: i
C[C@@H]1CN([C@H](C)CO)C(=O)c2cc(NC(=O)NC3CCCCC3)ccc2O[C@H]1CN(C)S(=O)(=O)c1cn(C)cn1
  FGF22 binding: i
CCC(=O)N1[C@H](C(=O)NCc2ccc(F)cc2)[C@@H](CO)[C@@H]2Cn3c(ccc(C4=CCCCC4)c3=O)[C@@H]21
  FGF22 binding: i

COc1ccc(NC(=O)N(C)C[C@H]2Oc3c(NC(=O)C4CCCCC4)cccc3C(=O)N([C@@H](C)CO)C[C@H]2C)cc1
  FGF22 binding: i
CCCC(=O)Nc1ccc2c(c1)C(=O)N(C)[C@H]1CC[C@@H](CC(=O)NCCOC)O[C@@H]1CO2
  FGF22 binding: i
CN(C)C(=O)C[C@@H]1CC[C@@H](NC(=O)C2CCOCC2)[C@@H](CO)O1
  FGF22 binding: i
COc1ccc(NC(=O)Nc2cccc3c2O[C@H](CN(C)Cc2ccc(C(=O)O)cc2)[C@H](C)CN([C@@H](C)CO)C3=O)cc1
  FGF22 binding: i
COc1ccccc1-c1cn(CC[C@H]2CC[C@H](NS(=O)(=O)c3ccccc3C)[C@@H](CO)O2)nn1
  FGF22 binding: i
CNC(=O)C[C@@H]1CC[C@@H]2[C@@H](COc3ccc(NC(=O)Nc4cccc(C)c4)cc3C(=O)N2C)O1
  FGF22 binding: i
CCCNC(=O)Nc1ccc2c(c1)C(=O)N(C)C[C@H](OC)[C@H](C)CN(C(C)=O)[C@H](C)CO2
  FGF22 binding: i
COc1ccc(NC(=O)N(C)C[C@H]2OCCCC[C@@H](C)Oc3ccc(NC(=O)NC(C)C)cc3C(=O)N([C@H](C)CO)C[C@@H]2C)cc1
  FGF22 binding: i
C[C@H]1CN([C@@H](C)CO)C(=O)c2cc(NC(=O)NC3CCCCC3)ccc2O[C@@H]1CN(C)C(=O)Nc1ccccc1
  FGF22 binding: i
CCCNC(=O)Nc1ccc2c(c1)C(=O)N(C)[C@H]1CC[C@@H](CC(=O)OC)O[C@H]1CO2
  FGF22 binding: i
C[C@H]1CN([C@@H](C)CO)C(=O)c2cc(C#Cc3ccccc3)cnc2O[C@H]1CN(C)CC1CCOCC1
  FGF22 binding: i
COc1cccc(NC(=O)N[C@H]2CC[C@H](CC(=O)NCc3ccncn3)O[C@H]2CO)c1
  FGF22 binding: i
Cc1noc(C)c1S(=O)(=O)Nc1ccc2c(c1)C(=O)N([C@@H](C)CO)C[C@H](C)[C@@H](CN(C)S(=O)(=O)c1ccccc1)OCCCC[C@@H](C)O2
  FGF22 binding: i
O=C(C[C@@H]1CC[C@@H]2[C@H](COC[C@H](O)CN2C(=O)c2ccccn2)O1)NC1CCC1
  FGF22 binding: i
COc1ccc(S(=O)(=O)N(C)C[C@@H]2Oc3ccc(NS(=O)(=O)c4ccc(F)cc4)cc3C(=O)N([C@H](C)CO)C[C@@H]2C)cc1
  FGF22 binding: i

C[C@H]1CN([C@@H](C)CO)C(=O)c2cc(C#CC3CC3)cnc2O[C@H]1CN(C)C(=O)Nc1ccc(F)cc1
  FGF22 binding: i
Cc1noc(C)c1NC(=O)Nc1ccc2c(c1)C(=O)N([C@@H](C)CO)C[C@H](C)[C@H](CN(C)C(=O)NC(C)C)O2
  FGF22 binding: i
C[C@H]1[C@H](c2ccccc2)Oc2cccc(NCCc3ccccc3)c2S(=O)(=O)N1Cc1cccc(Cl)c1
  FGF22 binding: i
C[C@@H]1CN([C@@H](C)CO)C(=O)c2cccc(NC(=O)C3CCCCC3)c2O[C@H]1CN(C)Cc1ccc(C(=O)O)cc1
  FGF22 binding: i
C[C@H]1CN([C@@H](C)CO)C(=O)c2cc(NC(=O)Nc3ccc(C(F)(F)F)cc3)ccc2O[C@H]1CN(C)C(=O)Nc1ccccc1
  FGF22 binding: i
CC(C)NC(=O)N[C@@H]1CC[C@H](CC(=O)NCCN2CCCC2)O[C@H]1CO
  FGF22 binding: i
C[C@H](CO)N1C[C@H](C)[C@H](CN(C)C(=O)C2CCOCC2)Oc2ncc(Br)cc2C1=O
  FGF22 binding: i
C[C@@H]1CN([C@@H](C)CO)C(=O)c2cc(NC(=O)c3ccncc3)ccc2O[C@@H](C)CCCCO[C@H]1CN(C)S(=O)(=O)c1cccs1
  FGF22 binding: i
CCNC(=O)[C@@H]1[C@@H](CO)[C@@H]2Cn3c(ccc(-c4ccccc4)c3=O)[C@@H]2N1CC1CC1
  FGF22 binding: i
CNC(=O)C[C@H]1CC[C@@H]2[C@H](COc3ccc(NC(=O)NC(C)C)cc3C(=O)N2C)O1
  FGF22 binding: i
O=S(=O)(Cc1ccccc1)N1CCCCN2[C@H](C1)[C@H](c1ccc(-c3ccncc3)cc1)[C@@H]2CO
  FGF22 binding: i
CCS(=O)(=O)N1CCCCN2[C@H](CO)[C@@H](c3ccc(-c4ccccc4)cc3)[C@@H]2C1
  FGF22 binding: i
C[C@@H]1CN([C@H](C)CO)S(=O)(=O)c2ccc(C#Cc3ccccc3F)cc2O[C@H]1CN(C)C(=O)Cc1cccnc1
  FGF22 binding: i
C[C@@H]1CN([C@@H](C)CO)C(=O)c2cc(Br)cnc2O[C@@H]1CN(C)S(=O)(=O)c1ccccc1
  FGF22 binding: i
COc1ccc(NC(=O)N[C@H]2CC[C@@H](CCNC(=O)Cc3ccncc3)O[C@H]2CO)cc1
  FGF22 binding: i

C[C@H]1CN([C@@H](C)CO)C(=O)Cc2cc(NC(=O)CCC(F)(F)F)ccc2O[C@@H]1CN(C)S(=O)(=O)c1cccs1
  FGF22 binding: i
C[C@H](CO)N1C[C@H](C)[C@H](CN(C)Cc2ccccc2)Oc2c(NS(=O)(=O)c3cn(C)cn3)cccc2C1=O
  FGF22 binding: i
COc1ccc(-c2cnc3c(c2)C(=O)N([C@H](C)CO)C[C@@H](C)[C@@H](CN(C)Cc2cccnc2)O3)cc1
  FGF22 binding: i
COc1ccccc1CNC(=O)C[C@H]1C[C@@H]2c3cc(NC(=O)CC4CC4)ccc3O[C@@H]2[C@@H](CO)O1
  FGF22 binding: i
C[C@H](CO)N1C[C@H](C)[C@@H](CN(C)CC2CCCCC2)OCCCC[C@H](C)Oc2ccc(NC(=O)NC3CCCCC3)cc2C1=O
  FGF22 binding: i
COc1ccccc1CNC(=O)C[C@H]1C[C@H]2c3cc(N(C)C)ccc3O[C@H]2[C@@H](CO)O1
  FGF22 binding: i
O=C(CC1CC1)N1[C@@H](CO)[C@H](c2ccccc2)C12CN(S(=O)(=O)c1ccccc1)C2
  FGF22 binding: i
COc1ccccc1CNC(=O)C[C@H]1CC[C@@H]2[C@H](COC[C@@H](O)CN2Cc2ccccc2)O1
  FGF22 binding: i
CN1c2ccc(Br)cc2[C@@H]2[C@@H](CCN2C(=O)c2ccc(F)cc2)[C@H]1CO
  FGF22 binding: i
CC(C)NC(=O)Nc1ccc2c(c1)CC(=O)N([C@@H](C)CO)C[C@H](C)[C@@H](CN(C)C(=O)NC(C)C)O2
  FGF22 binding: i
C[C@@H]1CCCCO[C@@H](CN(C)C(=O)Nc2ccc3c(c2)OCO3)[C@@H](C)CN([C@@H](C)CO)C(=O)c2cc(NC(=O)C3CCCCC3)ccc2O1
  FGF22 binding: i
C[C@H](O)C#Cc1cnc2c(c1)C(=O)N([C@H](C)CO)C[C@@H](C)[C@H](CN(C)C(=O)Nc1ccc(F)cc1)O2
  FGF22 binding: i
COc1ccc(S(=O)(=O)N(C)C[C@H]2Oc3ccc(NS(=O)(=O)c4cccs4)cc3C(=O)N([C@@H](C)CO)C[C@H]2C)cc1
  FGF22 binding: i
C[C@H]1CN([C@@H](C)CO)C(=O)c2cc(/C=C/c3ccccc3)cnc2O[C@@H]1CN(C)Cc1ccccc1
  FGF22 binding: i
CNC[C@@H]1Oc2ccc(NC(=O)Nc3ccc(C(F)(F)F)cc3)cc2C(=O)N([C@@H](C)CO)C[C@@H]1C
  FGF22 binding: i

CO[C@@H]1CN(C)C(=O)c2ccc(NC(=O)c3cccc(F)c3)cc2OC[C@H](C)NC[C@H]1C
  FGF22 binding: i
COc1ccccc1NC(=O)N1C[C@@H]2[C@H](c3ccccc31)[C@H](CO)N2C(=O)c1ccccc1
  FGF22 binding: i
C[C@@H]1CN([C@H](C)CO)C(=O)c2cccc(N(C)C)c2O[C@H]1CN(C)S(=O)(=O)c1ccc(Cl)cc1
  FGF22 binding: i
COCC1CC(c2ccccc2)OC(c2ccc(NC(=O)CCCCCCC(=O)O)cc2)O1 (stereo unspecified)
  FGF22 binding: i
COCC(=O)N1CC(=O)N2[C@H](CO)[C@H](c3ccc(Br)cc3)[C@@H]2C1
  FGF22 binding: i
Cc1ccc(S(=O)(=O)Nc2ccc3c(c2)CC(=O)N([C@@H](C)CO)C[C@H](C)[C@@H](CN(C)C(=O)Nc2ccc(F)cc2)O3)cc1
  FGF22 binding: i
COc1ccc(C(=O)Nc2ccc3c(c2)OC[C@H](C)N(C)C[C@@H](C)[C@H](OC)CN(C)C3=O)cc1
  FGF22 binding: i
COc1ccccc1S(=O)(=O)Nc1ccc2c(c1)OC[C@H](C)NC[C@@H](C)[C@@H](OC)CN(C)C2=O
  FGF22 binding: i
O=S(=O)(NCC[C@@H]1CC[C@H](NS(=O)(=O)c2cccc(Cl)c2)[C@H](CO)O1)c1cccc(F)c1
  FGF22 binding: i
O=C(C[C@@H]1CC[C@H]2[C@@H](COC[C@H](O)CN2C(=O)Nc2ccc(C(F)(F)F)cc2)O1)NC1Cc2ccccc2C1
  FGF22 binding: i
C[C@@H]1CN([C@H](C)CO)C(=O)c2ccccc2-c2ccccc2CO[C@@H]1CN(C)S(=O)(=O)c1ccccc1
  FGF22 binding: i
CC(C)NC(=O)Nc1ccc2c(c1)C(=O)N([C@H](C)CO)C[C@@H](C)[C@@H](CN(C)S(=O)(=O)c1ccc(Cl)cc1)O2
  FGF22 binding: i
C[C@H](CO)N1C[C@H](C)[C@H](CN(C)C(=O)c2ccc(F)cc2)OCc2ccccc2-c2c(n(C)c3ccccc23)C1=O
  FGF22 binding: i
CO[C@H]1CN(C)C(=O)c2cc(NS(C)(=O)=O)ccc2OC[C@H](C)N(C(=O)C2CCCC2)C[C@@H]1C
  FGF22 binding: i
COCC(=O)Nc1ccc2c(c1)[C@@H]1C[C@H](CC(=O)NCc3cccnc3)O[C@H](CO)[C@@H]1O2
  FGF22 binding: i

Overlap with the part before: five entries, followed by the next part.
C[C@@H]1CN([C@H](C)CO)C(=O)c2ccccc2-c2ccccc2CO[C@@H]1CN(C)S(=O)(=O)c1ccccc1
  FGF22 binding: i
CC(C)NC(=O)Nc1ccc2c(c1)C(=O)N([C@H](C)CO)C[C@@H](C)[C@@H](CN(C)S(=O)(=O)c1ccc(Cl)cc1)O2
  FGF22 binding: i
C[C@H](CO)N1C[C@H](C)[C@H](CN(C)C(=O)c2ccc(F)cc2)OCc2ccccc2-c2c(n(C)c3ccccc23)C1=O
  FGF22 binding: i
CO[C@H]1CN(C)C(=O)c2cc(NS(C)(=O)=O)ccc2OC[C@H](C)N(C(=O)C2CCCC2)C[C@@H]1C
  FGF22 binding: i
COCC(=O)Nc1ccc2c(c1)[C@@H]1C[C@H](CC(=O)NCc3cccnc3)O[C@H](CO)[C@@H]1O2
  FGF22 binding: i
C[C@@H]1CCCCO[C@H](CN(C)Cc2ccc(C(F)(F)F)cc2)[C@H](C)CN([C@H](C)CO)C(=O)c2cc(NC(=O)CCC(F)(F)F)ccc2O1
  FGF22 binding: i
O=C(C1=C[C@H](c2ccc(Br)cc2)C[C@H](OCc2ccc(CO)cc2)O1)N1CCN(Cc2ccccc2)CC1
  FGF22 binding: i
C[C@@H]1CCCCO[C@H](CN(C)Cc2ccc3c(c2)OCO3)[C@@H](C)CN([C@H](C)CO)C(=O)c2cc(NC(=O)CCCN(C)C)ccc2O1
  FGF22 binding: i
CN(C[C@H]1[C@@H](c2ccccc2)[C@H](CO)N1C(=O)C1CCC1)C(=O)c1ccccn1
  FGF22 binding: i
COc1ccc(S(=O)(=O)N(C)C[C@@H]2OCCCC[C@@H](C)Oc3ccc(NC(=O)C4CCCCC4)cc3C(=O)N([C@@H](C)CO)C[C@H]2C)cc1
  FGF22 binding: i
COc1ccc(NC(=O)N2CCCCN3[C@H](CO)[C@@H](c4ccc(C5=CCCC5)cc4)[C@H]3C2)cc1
  FGF22 binding: i
C[C@@H]1CN([C@@H](C)CO)C(=O)c2cc(NS(=O)(=O)c3ccc(F)cc3)ccc2O[C@@H](C)CCCCO[C@H]1CN(C)CC1CC1
  FGF22 binding: i
CCCN1CCCCC(NC(=O)OC(C)(C)C)C1=O (stereo unspecified)
  FGF22 binding: i

These rows are one share of the data (hit frequency here may not be typical).
